# EPAC2 agonist: EPAC2 (human) agonism; 0.079% of 360,000 active; Q8WZA2; Potency, µM (doses to about 154 µM), for inactives: top-dose activation, most hits filed as activators; EPAC2 activation, biochemical qHTS; response scale: 100% = 6.5 mM cAMP response; also: potency is read from the fitted curve at half-maximal effect; nearly all actives have a fitted effect of over 50% in size
# Target sequence (Q8WZA2 whole entry, looked up): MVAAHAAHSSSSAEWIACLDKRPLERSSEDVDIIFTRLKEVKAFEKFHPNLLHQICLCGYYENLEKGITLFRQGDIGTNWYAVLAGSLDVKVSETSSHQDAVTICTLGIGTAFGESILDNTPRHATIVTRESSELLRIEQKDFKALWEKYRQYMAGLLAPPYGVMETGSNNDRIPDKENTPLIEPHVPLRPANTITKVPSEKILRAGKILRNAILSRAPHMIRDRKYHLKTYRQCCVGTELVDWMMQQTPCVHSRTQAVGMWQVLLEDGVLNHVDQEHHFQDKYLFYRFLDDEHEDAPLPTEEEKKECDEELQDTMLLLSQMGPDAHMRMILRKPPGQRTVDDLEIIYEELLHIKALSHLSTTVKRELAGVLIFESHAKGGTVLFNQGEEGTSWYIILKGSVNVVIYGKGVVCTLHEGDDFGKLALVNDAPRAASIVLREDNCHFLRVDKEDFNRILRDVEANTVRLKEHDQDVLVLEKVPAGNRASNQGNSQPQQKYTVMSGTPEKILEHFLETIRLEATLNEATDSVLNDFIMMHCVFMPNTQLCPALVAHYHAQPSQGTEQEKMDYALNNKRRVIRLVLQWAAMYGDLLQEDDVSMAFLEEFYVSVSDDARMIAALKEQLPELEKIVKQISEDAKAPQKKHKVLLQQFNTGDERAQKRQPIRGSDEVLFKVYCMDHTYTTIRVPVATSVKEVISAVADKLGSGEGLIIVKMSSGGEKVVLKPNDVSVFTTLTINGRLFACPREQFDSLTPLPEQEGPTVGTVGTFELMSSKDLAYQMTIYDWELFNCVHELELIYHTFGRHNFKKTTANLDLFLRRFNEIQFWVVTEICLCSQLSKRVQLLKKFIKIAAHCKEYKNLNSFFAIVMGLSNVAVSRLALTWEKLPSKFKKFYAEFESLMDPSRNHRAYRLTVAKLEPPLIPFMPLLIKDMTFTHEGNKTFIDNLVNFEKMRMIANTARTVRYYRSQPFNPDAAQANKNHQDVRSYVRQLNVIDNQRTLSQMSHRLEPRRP
#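 EPAC2 (100 nM) mixed with Rap1B loaded with BODIPY-GDP (250 nM) plus 50 uM unlabeled GDP; compounds pinned in, 5 min RT, then read every 5 min for 30 min (ex 480, em 540 nm). Normalized to cAMP control.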
# IL2 activator: activates IL-2 in a cell-based reporter assay; IL-2 activation reporter assay, cell-based qHTS; stimulated with anti-CD3/CD4/CD28 beads; in transgenic mouse T cells; activation, % (series mostly up to about 46 µM); 0.065% of 360,000 active; in the data active = activation above about 50%; inconclusive = mostly about 30% to 49%; also: 0% is about no effect
#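 Using fluorescent plate cytometry, EGFP and DsRed are detected in transgenic mouse T cells stimulated 18 h at 37 degrees C with antibody-coated beads after 60 min compound pretreatment.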
# PLK1 PBD inh: blocks phosphopeptide binding to human PLK1 polo-box domain; Plk1 PBD binding of FITC phosphopeptide, fluorescence polarization; Potency, µM, for the others: max response, negative = inhibition, actives largely listed as inhibitors; 2.8% of 360,000 active; also: potency is read from the fitted curve at half-maximal effect; series mostly up to about 57 µM; % is scaled to controls: 0 for no effect and ±100 for the full control effect; nearly all actives have a fitted effect of over 65% in size
# WRN inhibitor: blocks human WRN helicase. WRN helicase unwinding, fluorescent forked duplex, kinetic. Potency, µM (series often up to 114 µM), for the others: top-dose activity change, negative = inhibition, actives largely listed as inhibitors. 0.46% of 360,000 active. Q14191; also: potency is read from the fitted curve at half-maximal effect; % is scaled to controls: 0 for no effect and ±100 for the full control effect; nearly all actives have a fitted effect of over 55% in size
#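 Kinetic red-fluorescence monitoring (525/598 nm) tracks WRN helicase activity after 100 nM fluorophore-quencher forked duplex and 2 mM ATP are added to 20 nM enzyme pretreated 15 min at room temperature with compound.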
# EPAC1 antagonist: blocks human EPAC1 exchange factor | Potency, µM (doses to about 115 µM), inactives show at the highest dose activity change, negative = inhibition, hits mostly inhibitors | 0.14% of 360,000 active | EPAC1 GEF assay, Rap1b-BODIPY-GDP exchange fluorescence;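 also: potency is read from the fitted curve at half-maximal effect; plate controls were vehicle for no effect and positive control for full effect; nearly all actives have a fitted effect of over 50% in size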
# EPAC1 ag: EPAC1 (human) agonism. EPAC1 agonist qHTS, biochemical assay; response scale: 100% = response to 6.5 mM cAMP. Potency, µM (top dose mostly 154 µM), inactives show at the top dose activation, actives largely listed as activators. O95398. 0.073% of 360,000 active; also: potency is read from the fitted curve at half-maximal effect; nearly all actives have a fitted effect of over 60% in size
#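 Compounds were pinned as a concentration titration into mixtures of EPAC1 (100 nM), BODIPY-GDP-loaded Rap1B (250 nM) and GDP (50 uM). After 5 min at room temperature, fluorescence was followed for 30 min; activity was scaled to 6.5 mM cAMP.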
# CCT modulator: changes cytosolic chaperonin activity; AID 651819; purified chaperonin ATPase assay, HTRF ADP detection, 30 min; 0.3% of 360,000 active; activity change, % (test concentration not listed), hits read low; in the data active = activity change below about -30%; also: % is scaled to controls: 0 for no effect and ±100 for the full control effect
#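 First, chaperonin was dispensed at 40 nM or 20 nM final depending on batch activity. Next, compounds were pinned at 76 uM and ATP added at 10 uM. After 30 min at 37 °C, ADP detection reagents ran 30 min at ambient temperature.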
# * hit, by the source's call; ? = inconclusive; / = not tested or not shown; [ ] = remark or other dose. Unless noted, calls follow the shape of the dose curve; as a rule, active = well fitted curve in the direction sought with a large enough effect; inconclusive = small, poorly fitted or top-dose-only effect, or another doubt; inactive = no such curve, though single readings can be large; an effect the other way counts as inactive or inconclusive. Only part of the results is shown; the hit share may differ from the screen's.
SMILES,EPAC2 agonist,IL2 activator,PLK1 PBD inh,WRN inhibitor,EPAC1 antagonist,EPAC1 ag,CCT modulator
O=c1cc(-c2ccsc2)oc2ccc(-c3ccc4cc[nH]c4c3)cc12,12%,-1.3,?,-10%,-3%,5%,1.1
O=C(Cc1ccc(Cl)cc1)Nc1ncc([N+](=O)[O-])s1,5%,-1.7,?,-18%,?,-13%,-0.5
CC(C)CC(=O)Nc1ccc(C(=O)COc2ccc(-c3nnco3)cc2)cc1,-15%,0.4,?,-9%,-8%,-3%,-1.2
C=CCn1c(C)nnc1SCC(=O)Nc1ccccc1C(=O)NC1CC1,4%,-5.1,0%,2%,8%,-4%,1.4
CC(=O)c1ccc(NC(=O)CO/N=C(\C)c2cccs2)cc1,-6%,-0.5,-1%,-11%,-2%,-3%,1.9
O=C(OCC(=O)N1CCCC1)c1c2c(nc3ccccc13)CCCCC2,-5%,5.5,1%,5%,-15%,10%,0.1
COc1ccc(C(C)(C)C)cc1NC(=O)COc1ccc(-c2nnco2)cc1,-5%,-0.5,-11%,-1%,-1%,-2%,-3.1
COc1cc2c(cc1OC)CN(C(=O)CCCN1C(=O)c3ccccc3C1=O)CC2,0%,-2.6,-5%,-3%,17%,-6%,-2.5
COc1ccncc1-c1ccc(C2=CC(=O)CC(C)(C)C2=O)cc1,13%,-0.8,-1%,0%,-19%,0%,-0.2
CCOC(=O)N1CCN(C(=O)c2ccc3c(=O)n(-c4ccc(F)cc4)c(=S)[nH]c3c2)CC1,4%,5.8,0%,-9%,8%,-5%,-6.5
Cc1nn(Cc2ccccc2Cl)c2sc(C(=O)NCCCn3ccnc3)cc12,-8%,-1.8,-5%,0%,17%,-2%,0.2
CCOc1cc(C)c(Cl)cc1S(=O)(=O)NCc1ccc2c(c1)OCO2,-3%,4.5,1%,0%[57.1 µM],-10%,6%,0.2
CN(CC(=O)Nc1ccc(Cl)c(C(F)(F)F)c1)C(=O)c1cccnc1Sc1ccccc1,-2%,1.7,-16%,-11%,-1%,4%,-0.2
CCN(c1ccc(NC(=O)CSc2nnc3nc(C)cc(C)n23)cc1)C(C)C,-22%,-1.7,-5%,-9%[57.1 µM],-4%,-6%,-0.8
N#Cc1ccccc1COC(=O)c1cc(S(=O)(=O)N2CCOCC2)ccc1F,7%,-3.4,2%,0%,2%,13%,-1.4
Cc1ccc(C(=O)NC(C(=O)OCc2cn3cc(Cl)ccc3n2)C(C)C)cc1 (stereo unspecified),4%,1.3,2%,-4%,-26%,-1%,-0.5
CCOCCCNC(=O)c1cc2c(=O)n3ccccc3nc2s1,7%,-1.7,2%,-2%,-10%,-2%,-4.2
CCCCCn1ccc(=O)c2c(C(F)(F)F)nccc21,-7%,-3.9,-7%,4%,-1%,-3%,0.0
O=C(N/N=C/c1ccc2c(c1)OCO2)c1ccc(NS(=O)(=O)c2cccs2)cc1,7%,0.6,5%,-26%,-4%,5%,-3.5
COc1ccc2oc(C(=O)OCC(=O)N(C)c3ccccc3)c(C)c2c1,5%,-2.0,-6%,-7%,-16%,6%,-2.7
COCCn1c(SC(C)C(=O)NCC2CCCO2)nc2scc(-c3ccc(F)cc3)c2c1=O (stereo unspecified),7%,-0.7,7%,-2%,0%,-33%[inhibitor],0.7
COc1cc(C2C(C(C)=O)=C(O)C(=O)N2CCN(C)C)ccc1O (stereo unspecified),0%,0.6,-8%,10%,4%,2%,-2.4
COc1ccc(NC(=O)CSc2nnc(Cc3cccs3)n2C)cc1,11%,-0.4,-2%,-13%,1%,7%,-8.6
CCc1cc(C(=O)c2ccc(OC)cc2)c(NC(=O)CN2CCCCC2)s1,12%,-0.9,3%,4%,4%,-8%,3.1
Cc1cc(NC(=O)CSc2nnc(NC(=O)C3CC(=O)N(c4ccccc4C)C3)s2)no1 (stereo unspecified),-11%,2.4,-3%,-4%,-7%,-16%,1.5

# Record cards (already shown). Screens in order: EPAC2 agonist, IL2 activator, PLK1 PBD inh, WRN inhibitor, EPAC1 antagonist, EPAC1 ag, CCT modulator
# N#Cc1ccccc1COC(=O)c1cc(S(=O)(=O)N2CCOCC2)ccc1F is entered as 7%, -3.4, 2%, 0%, 2%, 13%, -1.4
# COCCn1c(SC(C)C(=O)NCC2CCCO2)nc2scc(-c3ccc(F)cc3)c2c1=O (stereo unspecified) is entered as 7%, -0.7, 7%, -2%, 0%, -33%[inhibitor], 0.7

# Part of the list above, showing only WRN inhibitor and EPAC2 agonist.
smiles	WRN inhibitor	EPAC2 agonist
COc1ccc(NC(=O)CSc2nnc(Cc3cccs3)n2C)cc1	-13%	11%
O=c1cc(-c2ccsc2)oc2ccc(-c3ccc4cc[nH]c4c3)cc12	-10%	12%
CN(CC(=O)Nc1ccc(Cl)c(C(F)(F)F)c1)C(=O)c1cccnc1Sc1ccccc1	-11%	-2%
CC(=O)c1ccc(NC(=O)CO/N=C(\C)c2cccs2)cc1	-11%	-6%
Cc1cc(NC(=O)CSc2nnc(NC(=O)C3CC(=O)N(c4ccccc4C)C3)s2)no1 (stereo unspecified)	-4%	-11%
C=CCn1c(C)nnc1SCC(=O)Nc1ccccc1C(=O)NC1CC1	2%	4%

# Later entries:
SMILES,EPAC2 agonist,IL2 activator,PLK1 PBD inh,WRN inhibitor,EPAC1 antagonist,EPAC1 ag,CCT modulator
Cc1nnc(SCC(=O)Nc2ccccc2)c2ccccc12,-2%,-2.2,-15%,-24%,-27%,8%,-0.9
COc1ccc(/C=C2\N=C(C)N(c3ccc4ccccc4c3)C2=O)cc1OC,4%,?,3%,-11%,-23%,-2%,0.7
Cc1ccc(NC(=O)CSc2sc3c(O)cc(=O)[nH]c3c2C#N)cc1C,-3%,1.0,-15%,-17%[57.1 µM],-10%,-3%,0.1
Cn1c(CCNC(=O)c2ccccc2F)nnc1SCC(=O)Nc1nncs1,5%,-0.6,0%,-3%,7%,8%,1.1
O=S(=O)(NCc1ccc2c(c1)OCO2)c1ccccc1F,-1%,0.4,1%,7%,24%,-3%,-0.5
CC1(C)C(=O)Nc2ccccc2N1C(=O)COC(=O)c1cc(S(=O)(=O)N2CCOCC2)ccc1F,10%,-2.0,-8%,-15%,-1%,2%,-5.4
Cc1ccc(N(CC(=O)NCc2ccc3c(c2)OCO3)S(C)(=O)=O)cc1,4%,-0.1,-8%,-1%,0%,1%,-0.7
NS(=O)(=O)c1ccc(NC(=O)CSc2nnc(COc3ccccc3Cl)n2C2CC2)cc1,0%,-0.9,-13%,-9%,-28%,-7%,-0.4
CCOC(=O)c1c(NC(=O)C(C)NCc2ccco2)sc2c1CCC(C)C2 (stereo unspecified),-3%,-0.6,3%,-15%,-24%,-6%,-0.3
COCCn1c(=NC(=O)CSCC(=O)N2CCOCC2)sc2cc(C)ccc21,-3%,-1.1,-8%,-27%,9%,2%,-3.7
C/C(CC(=O)C(F)(F)F)=N\NC(=O)/C(C#N)=C/N(C)C,12%,0.2,-12%,3%,?,8%,-3.0
CSc1ccccc1-c1n[nH]c(=S)o1,-2%,-0.4,?,-11%,-16%,-4%,-1.1
COc1ccc(Cl)cc1NC(=O)C(C)N(C)Cc1ccc(C(F)(F)F)cc1 (stereo unspecified),8%,-3.2,-8%,?,?,-2%,-4.2
CN(CC(=O)Nc1cccc(F)c1)C(=O)CN1c2cccc3cccc(c23)S1(=O)=O,13%,0.4,-8%,-9%[11.6 µM],?,-10%,-1.9
COc1cc(C2/C(=C(\O)c3cc(C)ccc3C)C(=O)C(=O)N2CCN(C)C)ccc1O (stereo unspecified),-4%,0.8,-12%,0%[57.1 µM],6%,-1%,0.4
COCCCN1C(=O)C(=O)/C(=C(/O)c2ccc(OC(C)C)cc2)C1c1ccc(O)c(OC)c1 (stereo unspecified),11%,-0.2,-6%,-9%,-15%,-5%,-1.6
CCOC(=O)c1ccc(-c2ccc3oc(-c4ccsc4)cc(=O)c3c2)cc1F,18%,0.9,-1%,2%,-1%,5%,-3.1
CCCCCCSc1nsc(NC(C)=O)n1,-8%,-0.7,-6%,-10%,-5%,-7%,-0.5
CCOC(=O)Cn1c(=O)cc(C)c2cccc(C)c21,2%,-0.2,3%,-1%,-5%,6%,-1.4
COc1ccc(NC(=O)c2sc(N)nc2-c2ccccc2)cc1,4%,2.2,-10%,-10%,1%,6%,0.2
O=C1Nc2ccccc2-n2nnnc2C1N1CCN(c2ccc(C(F)(F)F)cc2[N+](=O)[O-])CC1 (stereo unspecified),5%,-0.6,-6%,-4%,-13%,-6%,/
Cc1ccc([N+](=O)[O-])cc1NC(=O)CSc1nncc2ccccc12,7%,-1.1,-11%,-4%,-11%,-4%,-3.1
Cc1cccc(NC(=O)Cn2cnc(S(=O)(=O)N3CCCC3)c2)c1C,15%,-1.9,-19%,3%,1%,6%,-0.7
O=C(CSc1nncs1)Nc1nnc(-c2ccccc2)o1,6%,-2.6,-1%,-13%,14%,-5%,-0.8
O=C1Nc2ccccc2-n2nnnc2C1N1CCc2ccccc2C1 (stereo unspecified),2%,-0.3,-4%,5%,-12%,-8%,/

# Continued:
SMILES,EPAC2 agonist,IL2 activator,PLK1 PBD inh,WRN inhibitor,EPAC1 antagonist,EPAC1 ag,CCT modulator
COC(=O)c1cc(=O)nc2sc3cc(OC)ccc3n12,-2%,-0.8,-12%,-14%,31%[activator],1%,2.2
CCOC(=O)c1cc(C#N)c(N2CCCC2)nc1-c1ccccc1,1%,0.0,-1%,-5%,-7%,15%,1.1
C#CCn1c(=NC(=O)CSCC(=O)N2CCOCC2)sc2ccccc21,-2%,-2.7,-8%,10%,-16%,-4%,1.5
CN(CC1CCCO1)S(=O)(=O)c1ccc(C(=O)Nc2ccc(F)cc2)cc1 (stereo unspecified),1%,-1.8,5%,-10%,-12%,-4%,-0.3
O=S(=O)(Nc1ccc(-c2nc3cccnc3s2)cc1)c1cccs1,5%,-0.4,-6%,-7%,-2%,-5%,0.2
CN1CCN(CC(=O)Nc2nc(-c3ccccc3)cs2)CC1,3%,-0.2,0%,-7%,-3%,3%,-1.7
COc1ccc(CNc2c(C(=O)O)cnc3c2cnn3C)cc1,2%,-0.3,-6%,-8%,-2%,2%,1.1
O=C(COc1ccc(-c2nnco2)cc1)Nc1ccc(C(F)(F)F)cc1,-11%,-2.4,2%,0%,4%,-5%,0.0
O=C(NCCSCc1ccccc1)c1cc(S(=O)(=O)N2CCOCC2)ccc1F,12%,-2.0,?,12%,-22%,-8%,0.8
CC12CCC(C/C1=N\N=C1\NC(=O)/C(=C\c3cccc(Br)c3)S1)C2(C)C (stereo unspecified),-8%,-0.4,30µM*,-11%,-1%,7%,0.6
CCCOc1ccc(C2/C(=C(/O)c3ccc(F)cc3)C(=O)C(=O)N2CCCN(C)C)cc1 (stereo unspecified),1%,-0.4,-9%,-8%[57.1 µM],3%,0%,-0.9
CC1CCCN(C(=O)CNC(=O)c2ccco2)C1 (stereo unspecified),6%,-3.8,-14%,-4%,?,3%,1.7
Cc1ccc(NC(=O)CNCc2cccs2)c(Br)c1,18%,1.3,7%,5%,-1%,-2%,-0.1
COc1ccc(S(=O)(=O)N2CCN(CC(=O)NCCc3cccs3)CC2)cc1,2%,2.7,-2%,5%,-3%,-2%,-0.5
CCN(CC)S(=O)(=O)c1cccc(NC(=O)COC(=O)c2cccs2)c1,10%,2.3,5%,-5%[57.1 µM],?,6%,0.0
CCOC(=O)c1c(NC(=O)CSc2nnc(C)s2)sc2c1CCC(C)C2 (stereo unspecified),12%,0.9,-7%,-7%,-13%,-2%,-1.6

# Screening results as filed in PubChem.
